Bioassay records as filed in PubChem BioAssay.
Mtb hypoxia rep: PubChem AID 1159583. 300,000 tested, 0.1% active. fluorescence inhibition, % (no concentration beside the values). M. tuberculosis hypoxia-regulated fluorescent reporter, fluorescence;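 active = 35 to 45% if threefold the growth effect, above 45% if 1.5-fold the growth effect; inactive = the rest, general growth blockers included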;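 also: wells of about 50 µL received 100 nL stock; 0% = vehicle wells and 100% = reference inhibitor wells; whole bacteria with a GFP reporter of the hypoxia response; strong numbers were not always called active; many hits fall short of the cut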
PrP 5UTR inh: inhibition of PrP 5' UTR reporter expression; cell-based PrP 5' UTR mRNA reporter, plate reader; AID 488862, 2010; inhibition, % (no concentration beside the values); 340,000 tested, 0.35% active;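 active = every replicate at 50% or more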;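 also: 0 = median of the neutral control wells; tested in H4 reporter cells; numbers are from one replicate; inactives centre near -14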
BJeLR lethal: MLPCN primary cell-based screen for lethality selective to Ras in HRASV12 cells. BJeLR (HRASV12) viability, CellTiter-Glo ATP luminescence, 48 h; reference of the scale not given here. inhibition, % (no concentration beside the values). 300,000 tested, 0.17% active. AID 1554, 2009;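 active = replicate mean above 50%; inconclusive = above 50% but judged a plate artefact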;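 also: 50 nL library stock added to about 25 µL; numbers are from one replicate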
Autofluor counter: counter-screen for toxin protease inhibitors: compound fluorescence. compound autofluorescence counterscreen, microsphere flow cytometry; stronger effect = higher value. fluorescence intensity (test concentration not listed). 360,000 tested, 3.1% active;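 active = at least 3 SD above the mean of all compounds, about 16000 in these data; inconclusive = too few beads counted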;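 also: 100 nL of 1 mM stock went into each well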
Sa RN4220 lethal: growth inhibition of S. aureus RN4220, primary screen, OD600. 16 h. inhibition, % (concentration not given with the values). 330,000 tested, 0.33% active. AID 1259311, 2017;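 active = z-score of -3 or lower and OD600 up to 0.18 on both plates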;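 also: plate controls were untreated cells for no effect and reference antibiotic for full effect; stock transfer was 100 nL into about 80 µL; one replicate is shown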
ugtP null kill: growth inhibition of ugtP-null S. aureus, primary screen, RN4220 ugtP deletion, OD600 | 330,000 tested, 0.54% active | growth inhibition, % (test concentration not listed) | 16 h; some inactives read as strong as hits;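 active = z-score under -3 and OD600 up to 0.15 on both plates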;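 also: plate controls were untreated wells for no effect and antibiotic for full effect; wells of about 80 µL received 100 nL stock; the first replicate is given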
Mtb hypoxia rep growth: second read-out of Mtb hypoxia rep, no call of its own (marks repeat the call); growth inhibition, %; measured here: M. tuberculosis growth (absorbance);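 0% = vehicle and 100% = reference antibiotic; read after six days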
Active calls of the source: *; ? = inconclusive; nt = not tested or not shown.

SMILES	Mtb hypoxia rep	Mtb hypoxia rep growth	PrP 5UTR inh	BJeLR lethal	Autofluor counter	Sa RN4220 lethal	ugtP null kill
Oc1cccc(N2Cc3ccccc3C2)c1	4.2	5.6	-14.1	5.2	3501	4.0	9.4
CC(=O)/C(C#N)=C1\NC(=O)C(Cc2ccc(C)c(C)c2)S1 (configuration not stated)	3.2	1.3	-7.7	23.4	3220	40.3	28.2
Cn1nc(-c2ccccc2)nc1-c1ccccc1	8.8	3.5	-44.0	-12.7	3110	5.7	2.5
Oc1cccc(/C=C/c2ccc3cccc(O)c3n2)c1	4.7	-0.6	-86.2	8.1	3926	1.8	-5.0
O=C(NNS(=O)(=O)c1cc(Cl)c(Cl)cc1Cl)c1cccnc1	-10.0	-9.7	-11.9	-12.2	5960	-1.5	14.2
O=C(O)CCC(=O)Nc1ccc(-n2ccc(C(F)(F)F)n2)cc1	1.7	-5.0	-18.2	-4.9	4656	2.9	9.6
Cc1c(C#N)c2ccccc2n1CC(=O)NCCc1c[nH]c2ccccc12	0.0	8.0	-9.8	-4.6	5831	-0.5	15.3
N#Cc1nc(COc2ccc(Br)cc2)oc1N1CCCCCC1	nt	nt	1.2	-15.0	6238	32.6	18.9
CCOC(=O)c1ccccc1NC(=O)COC(=O)C1CC(=O)N(c2ccc3c(c2)OCCO3)C1 (configuration not stated)	6.1	5.9	-16.0	3.3	7179	7.5	4.1
NC(=O)CSc1nnc(-c2ccccc2Br)n1-c1cccc(C(F)(F)F)c1	9.7	5.6	-7.7	13.4	2579	9.5	-2.7
Cc1ccc(C(=O)COC(=O)C(C)N2C(=O)C3C4CCC(C4)C3C2=O)cc1C (configuration not stated)	-1.7	-6.1	-15.0	-1.0	4451	-0.3	6.6
CCCCOc1ccc(C(=O)NCC(=O)NC2CCC(C)CC2)cc1 (configuration not stated)	-5.6	-3.4	-21.2	-0.3	?	-2.1	1.2
CCOC(=O)c1c(-n2c(C)cc(C=O)c2C)sc2c1CCCC2	-1.9	-5.3	-13.9	4.7	22089*	-1.1	-17.1
CCOC(=O)C1(Cc2ccc(OC)cc2)CCN(C(=O)c2cc3ccccc3[nH]2)CC1	14.7	5.5	-35.7	-9.1	2543	5.0	-6.2
O=C(NC1CCCCCCC1)c1cccs1	nt	nt	-11.5	-2.6	3695	4.1	3.5
O=C(NCC1CCCO1)/C(=C\c1ccco1)NC(=O)c1ccc(Cl)cc1 (configuration not stated)	-3.7	-4.2	-15.2	2.3	2642	5.6	15.4
CN(CC(=O)Nc1c(Cl)cccc1Cl)C(=O)CC1Sc2ccccc2NC1=O (configuration not stated)	2.8	-3.2	-9.0	8.7	?	5.0	1.2
CCCCCCC(=O)Nc1nc(C)c(-c2csc(Nc3cc(Cl)ccc3C)n2)s1	nt	nt	-26.2	-3.1	4070	nt	nt
O=C(O)c1ccccc1C(=O)OCCCc1ccncc1	-1.1	3.1	-20.2	3.3	4043	3.4	0.2
COc1ccc(OC)c(NC(=O)COc2coc(CN3CCCc4ccccc43)cc2=O)c1	5.9	6.4	-18.7	3.5	5043	3.5	-14.9
O=C(NN=C/C(Cl)=C/c1ccc([N+](=O)[O-])cc1)C(=O)Nc1cccc(C(=O)O)c1	13.6	14.0	nt	nt	nt	-4.8	-0.5
COc1cc(/C=C/c2nc3ccccc3s2)cc(OC)c1O	10.3	0.6	-53.0	3.5	4574	5.3	-42.6
Cc1ccc(C(=O)COC(=O)C(C)N2C(=O)C3C4C=CC(C4)C3C2=O)cc1 (configuration not stated)	7.4	6.6	-3.7	-6.4	1909	2.2	7.7
COC(=O)c1ccc(NC(=O)CN2C(=O)CCC2=O)cc1	6.2	6.1	-10.7	-9.3	9617	-0.3	0.9
COc1ccc(CN(C)C(=O)C(CCSC)NS(=O)(=O)c2ccc3c(c2)OCCO3)c(OC)c1OC (configuration not stated)	16.3	41.5	-13.3	nt	3866	1.0	-0.8

New compounds follow.
SMILES	Mtb hypoxia rep	Mtb hypoxia rep growth	PrP 5UTR inh	BJeLR lethal	Autofluor counter	Sa RN4220 lethal	ugtP null kill
CCOC(=O)N1CCC(NS(=O)(=O)c2cc3c(cc2Cl)NC(=O)CO3)CC1	4.5	14.1	2.1	-5.2	4134	-2.6	-9.7
O=C1NCC(c2ccccc2)C1C(=O)NN=Cc1ccc(Cl)s1 (configuration not stated)	1.6	3.1	nt	nt	nt	3.2	0.5
CN(C)S(=O)(=O)c1cccc(NC(=O)COC(=O)COc2ccc(Br)cc2)c1	4.6	1.5	-16.0	2.2	3588	3.6	-0.7
Cc1noc(C)c1C(=O)N1CCCC(N2CCN(c3cccc(C(F)(F)F)c3)CC2)C1 (configuration not stated)	5.9	11.7	-8.4	7.5	6073	3.8	4.1
CCC(=O)c1ccc(OCC(=O)Nc2nn3cnnc3s2)cc1	nt	nt	-3.4	4.9	3505	-2.3	4.3
O=C(O)CCC(=O)NN1C(=O)c2ccccc2NC1c1ccc(F)cc1 (configuration not stated)	6.7	9.7	-11.2	-2.0	4833	2.8	5.4
Cn1c(SCC2CCCO2)nnc1-c1cccc([N+](=O)[O-])c1 (configuration not stated)	1.9	4.6	-6.1	-2.1	4356	4.1	5.9
O=C(CNC(=O)c1ccc(Cl)cc1)NNC(=O)c1ccc(Br)cc1	8.4	2.9	-15.0	nt	3530	4.1	2.5
CCCNC1(C(N)=O)CCN(Cc2ccccc2)CC1	10.9	2.0	-11.6	nt	3214	3.6	11.4
CCNC(=O)CCS(=O)(=O)c1ccc2ccccc2c1	-4.2	-14.4	-40.4	-1.4	4478	3.6	4.1
N#Cc1c2n(c(=S)n(-c3ccc(OC(F)F)cc3)c1=O)CCCCC2	-1.3	5.9	-0.2	3.8	3245	-2.7	-2.6
CCCc1nc2ccccc2c(C(=O)OCC(=O)NCc2ccco2)c1CC	5.0	10.4	-28.2	-10.6	5886	-3.6	9.6
COc1ccc(C(=O)Nc2c(N)nc(SCC(=O)Nc3ccc(NC(C)=O)cc3)[nH]c2=O)cc1	2.9	-8.3	7.9	1.6	4081	-0.2	-4.1
CCOC(=O)CC1C(=O)NCCN1S(=O)(=O)c1ccc(F)cc1 (configuration not stated)	-3.4	0.0	-8.0	6.8	2567	2.3	2.3
CC1(C)NC(=O)N(CC(O)CN(c2ccccc2)S(=O)(=O)c2ccccc2[N+](=O)[O-])C1=O (configuration not stated)	1.8	10.5	7.8	1.0	5085	2.9	5.4
CCCCNc1c(-c2ccc(-c3ccc(OC)cc3)c(OC)c2)nc2ccccn12	6.5	10.7	-10.5	nt	3966	1.0	-32.7
COc1ccc(S(=O)(=O)N(C)CC(=O)Nc2ccc3c(c2)OCCO3)cc1OC	7.9	5.2	-19.3	0.5	3397	-14.8	-1.9
Cc1ccc(S(=O)(=O)N2CCOCC2)cc1C(=O)N1CCN(S(=O)(=O)c2cccs2)CC1	-0.1	-7.4	nt	8.1	3696	0.9	5.7
COc1ccc(/C=C2/SC(=S)N(CCC(=O)N3CCN(C)CC3)C2=O)cc1	1.0	-9.4	0.1	-4.4	3400	2.5	1.5
O=C(Cc1ccccc1[N+](=O)[O-])Nc1cccc(S(=O)(=O)NC2=NCCCCC2)c1	nt	nt	-4.5	1.1	4768	nt	nt
Cc1ccc(O)c(-c2cc(C(F)(F)C(F)F)[nH]n2)c1	-11.1	2.8	-20.0	-4.3	2455	-15.1	-23.8
COc1cccc(CN2CC(C(=O)N3CCOCC3)CCC2=O)c1 (configuration not stated)	4.7	2.4	-48.0	5.9	5374	0.0	5.9
CCc1nc(N2CCN(C(=O)c3ccco3)CC2)c2c3c(sc2n1)CCCC3	-2.9	14.8	-7.3	-4.1	4522	21.1	6.3
O=C(NNS(=O)(=O)c1ccccc1[N+](=O)[O-])c1cccc([N+](=O)[O-])c1	7.2	2.6	-16.6	0.0	9050	11.0	-1.0
O=[N+]([O-])c1cc(S(=O)(=O)N2CCOCC2)ccc1OCc1cccc(Cl)c1	-0.8	-2.7	-6.5	nt	4174	4.5	4.3

An excerpt from above in order of count of non-hydrogen atoms, lowest first:
SMILES	Mtb hypoxia rep	Mtb hypoxia rep growth	PrP 5UTR inh	BJeLR lethal	Autofluor counter	Sa RN4220 lethal	ugtP null kill
O=C1NCC(c2ccccc2)C1C(=O)NN=Cc1ccc(Cl)s1 (configuration not stated)	1.6	3.1	nt	nt	nt	3.2	0.5
N#Cc1c2n(c(=S)n(-c3ccc(OC(F)F)cc3)c1=O)CCCCC2	-1.3	5.9	-0.2	3.8	3245	-2.7	-2.6
O=C(O)CCC(=O)NN1C(=O)c2ccccc2NC1c1ccc(F)cc1 (configuration not stated)	6.7	9.7	-11.2	-2.0	4833	2.8	5.4
CCCCNc1c(-c2ccc(-c3ccc(OC)cc3)c(OC)c2)nc2ccccn12	6.5	10.7	-10.5	nt	3966	1.0	-32.7
Cc1ccc(S(=O)(=O)N2CCOCC2)cc1C(=O)N1CCN(S(=O)(=O)c2cccs2)CC1	-0.1	-7.4	nt	8.1	3696	0.9	5.7

The list continues.
SMILES	Mtb hypoxia rep	Mtb hypoxia rep growth	PrP 5UTR inh	BJeLR lethal	Autofluor counter	Sa RN4220 lethal	ugtP null kill
Cc1ccc(C(=O)N2CCn3c(C)ccc3C2C)cc1 (configuration not stated)	5.1	5.9	-27.3	0.0	5546	5.0	7.9
CC1CCCC(NC(=O)c2ccncc2)C1C (configuration not stated)	20.8	-0.6	16.7	-3.0	nt	3.9	7.1
CC(=O)c1ccc(Cc2ccccc2)cc1	4.4	-5.5	-24.7	-4.1	2572	2.0	-4.1
C[C@H](CO)N1C[C@H](C)[C@@H](CN(C)C(=O)Nc2ccc3c(c2)OCO3)Oc2ccc(NC(=O)CCN3CCOCC3)cc2C1=O	5.9	14.6	-29.2	nt	4183	-15.2	-14.4
COc1ccc(C(=O)Oc2c(CN3CCOCC3)cc(Cl)c3cccnc23)cc1	1.3	5.2	2.8	11.1	3186	-7.2	-5.9
Cc1cc(C)nc(NN=Cc2ccc(N3CCOCC3)cc2)n1	-10.1	8.5	nt	nt	nt	-2.4	0.7
CCOC(=O)NC(C(F)(F)F)(C(F)(F)F)P(=O)(c1ccccc1)c1ccccc1	nt	nt	-6.3	-5.9	2429	nt	nt
COc1ccc2nc(NC(=O)CSc3nc4cccnc4n3C)sc2c1	-7.3	-1.7	-10.1	4.0	3847	-7.8	-1.7
CN1CCc2c(sc3c2c(=O)n(-c2ccc(Cl)cc2)c2nncn32)C1	4.5	8.6	-6.0	-3.5	10478	2.1	2.5
CC(C)C[C@H]1CN=C(Nc2ccccc2)N1CC1CCCC1	nt	nt	-5.3	-7.4	4310	nt	nt
COC(=O)C1(Cc2ccccc2)NC(c2ccc(F)cc2)C2C(=O)N(C)C(=O)C21 (configuration not stated)	3.8	9.2	-24.3	1.1	3146	0.7	-0.7
O=C(OCC(=O)N1CCOCC1)c1ccccc1OCc1ccccc1Cl	8.6	1.5	-3.9	nt	4340	4.1	7.5
Cc1cccc2nc(C(F)(F)F)nc(=O)n12	7.6	1.4	-5.7	-14.0	3302	7.5	2.9
C[C@@H]1CN(S(=O)C(C)(C)C)[C@@H](CCO)/C1=C\CCO (some centres not stated)	-2.3	-2.6	-0.5	nt	3926	3.5	-1.6
Cc1ccc(NC(=O)COC(=O)/C=C/c2ccco2)cc1S(=O)(=O)N(C)C	4.4	-0.8	-5.9	4.7	2607	8.3	-1.2
Cc1ccc(-n2ncc3c(=O)[nH]c(SC(C)C)nc32)cc1	7.1	9.9	-5.1	nt	5701	-2.5	1.5
COc1ccc(CC(=O)NNC(=O)c2c(-c3ccccc3Cl)noc2C)cc1OC	7.1	4.0	-17.6	-1.4	5843	3.6	0.1
Cc1cc(C)n(C(=O)CNC(=O)c2cccc(F)c2)n1	-3.4	-2.8	11.1	-5.8	4100	2.4	-0.8
CCCCN(CCCC)S(=O)(=O)c1ccc(C(=O)Nc2nnc(CSC)o2)cc1	nt	nt	-67.8	6.7	2447	111.9*	99.0*
Cc1ccccc1N=Cc1cc2c(cc1[N+](=O)[O-])OCO2	6.7	7.4	-12.2	-7.1	2350	-0.3	0.6
COc1ccc(NC(=O)CSc2nc3c(c(=O)n2-c2ccc(F)cc2)SCC3)cc1	-0.1	-0.6	-2.5	3.2	5742	0.5	10.6
CCOc1c(Cl)cc(CNC(C)C(O)c2ccccc2)cc1OC (configuration not stated)	11.9	11.1	-23.4	-2.0	5214	1.5	2.9
Cc1cnc(-c2nnc(N(C)C(=O)c3cccnc3)s2)cn1	nt	nt	-15.6	5.3	4237	-3.8	-11.0
Cc1cc(/C=N/NC(=O)C(=O)NCc2ccccn2)c(C)n1-c1cccc(Br)c1	nt	nt	-1.5	-6.0	1995	nt	nt
